# Assay outcomes deposited in PubChem by National Center for Advancing Translational Sciences (NCATS).
# A488 autofl: A488 region autofluorescence; 0.1% of 59,000 active; max dye equivalency, M; compound autofluorescence, A488 spectral region, dye equivalency; active compounds read high; active = above 10 nM dye equivalent; inconclusive = 1 to 10 nM; inactive = 1 nM or less; about half of its hits are not listed in these tables;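 further: highest value over a series up to 38 µM; compound alone in buffer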
#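 Spectroscopic profiling in the A488 region: compounds in pH 8.0 Tris (100 mM), 15 min RT, CCD imaging with 480 nm excitation and 540 nm emission; responses normalized against A488 dye standards.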
# AID923: qHTS Assay for Allosteric/Competitive Inhibitors of Caspase-1: Spectroscopic Profiling in AFC Spectral Region; Potency, µM (doses to about 57.5 µM), for the others: at the top dose fluorescence increase, hits mostly activators; compound fluorescence, AFC spectral region (405/520 nm); almost no hit is shown here; 1.1% of 75,000 active; AID 923, 2007; active means well fitted activation curve with a large enough effect; inconclusive means small, poorly fitted or top-dose-only effect;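 further: potency means the concentration at half of the fitted maximal effect; 0% is about no effect; scaled to a free AFC standard on each plate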
#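 Baseline compound fluorescence (AFC region, 405 nm ex/520 nm em) taken from the intercept of kinetic reads with 50 nM caspase-1 and 5 uM Ac-WEHD-AFC; normalized to an on-plate AFC standard curve; compounds titrated up to 57 uM.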
# Resorufin fluor: compounds fluorescent in resorufin spectral region; Compound fluorescence, resorufin region 547/598 nm, buffer; active compounds read high; max dye-equivalent concentration, M; 0.04% of 59,000 active; active = above 10 nM dye equivalent; inconclusive = 1 to 10 nM; inactive = 1 nM or less; a few of its hits are not listed in these tables; further: highest value over a series up to 38 µM
#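 Intrinsic fluorescence profiled in the resorufin window (ex 547 nm, em 598 nm) after 15 min at room temperature in pH 8.0 Tris buffer (100 mM); responses normalized against a six-point resorufin standard series as dye-equivalent concentration.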
# TSHR ag: agonists of human thyroid stimulating hormone receptor. HEK293-CNG-TSHR cells (CNG channel as cAMP sensor), membrane potential dye, cAMP. Potency, µM (series often up to 57.1 µM), for the others: top-dose activation, hits mostly activators. 0.48% of 73,000 active. AID 926; active = well fitted activation curve of enough size with the parental cells flat; inconclusive = any curve in the parental cells; inactive = parental cells flat and receptor cells flat or falling; further: potency means the concentration at half of the fitted maximal effect; % of control where 0% means no effect; weak receptor curves with flat parental cells got no call and are not listed
# Target sequence (P16473 whole entry, looked up): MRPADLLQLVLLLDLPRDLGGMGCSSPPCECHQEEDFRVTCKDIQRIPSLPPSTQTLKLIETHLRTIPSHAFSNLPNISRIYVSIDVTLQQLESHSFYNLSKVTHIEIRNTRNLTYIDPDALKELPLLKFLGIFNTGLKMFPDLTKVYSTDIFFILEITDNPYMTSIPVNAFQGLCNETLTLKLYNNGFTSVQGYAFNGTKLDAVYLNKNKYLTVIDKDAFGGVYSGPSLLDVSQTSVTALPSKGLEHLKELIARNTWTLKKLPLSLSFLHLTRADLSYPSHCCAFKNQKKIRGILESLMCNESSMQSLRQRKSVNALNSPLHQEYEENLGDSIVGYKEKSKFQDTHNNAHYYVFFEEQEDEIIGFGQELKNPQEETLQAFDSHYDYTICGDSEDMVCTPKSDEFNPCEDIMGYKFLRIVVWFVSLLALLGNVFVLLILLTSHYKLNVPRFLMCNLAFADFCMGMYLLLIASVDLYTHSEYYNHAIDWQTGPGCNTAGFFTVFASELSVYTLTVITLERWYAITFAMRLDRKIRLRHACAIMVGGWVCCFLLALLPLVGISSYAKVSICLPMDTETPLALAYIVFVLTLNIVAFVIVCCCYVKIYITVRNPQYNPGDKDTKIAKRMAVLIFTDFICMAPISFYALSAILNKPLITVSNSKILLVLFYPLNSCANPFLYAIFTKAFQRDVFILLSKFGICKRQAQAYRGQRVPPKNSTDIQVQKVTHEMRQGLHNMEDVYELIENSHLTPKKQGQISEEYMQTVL
#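 cAMP rise detected as CNG-channel membrane depolarization by fluorescent dye (emission 590 nm), 30 min after compound, following 60 min dye loading containing 100 uM RO 20-1724 at room temperature. Cells: TSHR/CNG HEK 293, with parental CNG HEK 293 as control.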
# A647 fluor: compound fluoresces in the A647 spectral region. Compound fluorescence, A647 channel (570/671 nm), Tris buffer. max dye-equivalent concentration, M. 59,000 tested, under 10 active; active means above 1 µM dye equivalent; inconclusive means 0.1 to 1 µM; inactive means 0.1 µM or less;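 further: values scaled relative to a standard on each plate; highest value over a series up to 38 µM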
#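 Compound fluorescence was measured in 100 mM Tris buffer, pH 8.0, after 15 min at room temperature, using 570 nm excitation and 671 nm emission filters. Signal was normalized to a per-plate Alexa 647 standard curve and expressed as dye-equivalent concentration at each compound concentration.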
# Numbers without * were called inactive; i = inactive; u = inconclusive; x = no result given; [ ] = remark or other dose. Not all compounds are listed. The share of hits here may be higher or lower than overall.
SMILES | A488 autofl | AID923 | Resorufin fluor | TSHR ag | A647 fluor
CN(C(=O)c1cc2n(n1)C(C(F)(F)F)CC(c1ccco1)N2)c1ccccc1 (configuration not stated) | i | -0.2% | i | -4.2% | 1e-09
O=C(CCN1CCN(c2ccccc2)CC1)Nc1ccc2c(c1)OCO2 | x | 0.4% | x | 3.6% | x
CCCn1c(NCc2cccs2)nc2ccccc21 | x | 0.7% | x | 13.7% | x
CCOC(=O)N1CCN(C(=O)CNS(=O)(=O)c2cccs2)CC1 | i | 0.5% | i | u | 1.3e-09
CCN(CC)C(=O)c1n[nH]c(=O)c2ccccc12 | i | -0.7% | i | -0.2% | 1e-09
Cc1cc(-c2nsc(=O)o2)c(S(C)(=O)=O)s1 | i | -1.4% | i | u | 1e-09
COc1cccc(CNC(=O)Cn2cc3c(n2)CCCC3)c1 | x | -2.5% | x | 9.2% | x
CCOc1ccc(N2CCCCn3c2nc2c3c(=O)[nH]c(=O)n2C)cc1 | i | -1.5% | i | -12.4% | 7.7e-09
COC(=O)c1sccc1NC(=O)c1csc2c1CCCC2 | i | -0.8% | i | x | 1e-09
CCc1nnc(NC(=O)c2ccc(COc3ccccc3)o2)s1 | i | -0.7% | i | 2.4% | 1e-09
COc1ccc(N(CC(=O)NC(C)(C)C)S(=O)(=O)c2ccccc2)cc1OC | i | 2.8% | i | 4.9% | 1e-09
O=C(Nc1ccc(-c2nnc(-c3ccccc3)o2)cc1)c1ccc(Br)o1 | i | 0.1% | i | u | 1.88e-08
O=C(NC1CC1)c1ccc(CSCc2cccc(F)c2)o1 | x | -1.2% | x | 27.9% | x
NC[C@@]12CCCC1C1CCC2C1 (some centres not stated) | i | 0.0% | i | -18.5% | 1.71e-08
COc1ccc(CNCC(O)COCc2cccs2)cc1 (configuration not stated) | i | 3.6% | i | u | 3.7e-09
C=CCn1c(N)c(C(=O)NCc2ccco2)sc1=S | i | 1.5% | i | -14.4% | 2.4e-09
Cc1ccc2c(c1)C1(C(=O)N2C)N2CC3(C)CN1CC(C)(C2)C3=O (configuration not stated) | x | -1.5% | x | -14.8% | x
Oc1ccc(Cl)cc1/C=N/c1nccs1 | x | 13.8% | x | -4.5%[11.4 µM] | x
CN(Cc1ccccc1)S(=O)(=O)c1ccc2[nH]cc(C(=O)NCC3CCCO3)c(=O)c2c1 (configuration not stated) | i | 2.4% | i | -10.9% | 2e-09
COc1ccc(C(=O)N2CCN(S(=O)(=O)N3CCOCC3)CC2)cc1OC | i | 1.4% | i | -5.5% | 8.1e-09
COc1ccc2cc(CN(Cc3ccco3)C(c3nnnn3C3CCCCC3)C(C)C)c(=O)[nH]c2c1 (configuration not stated) | i | 2.8% | i | u | 6.5e-09
Cc1ccc(CS(=O)(=O)CCC(=O)NCc2ccc3c(c2)OCO3)cc1 | i | -0.9% | i | -1.8% | 5.1e-09
O=C(O)CNC(=O)c1ccccc1NC(=O)c1ccco1 | i | 1.6% | i | -3.6% | 3.2e-08
Cc1cc(C(=O)O)c(=O)[nH]c1C | i | -3.6% | i | -0.9% | 8.8e-09
CNC(=O)NCC12CC3CC(CC(C3)C1)C2 | i | -0.7% | i | -0.3% | 1e-09
CC(=O)Nc1ccc(S(=O)(=O)Nc2nc3ccccc3nc2N2CCCC2)cc1 | i | -4.3% | i | -7.2% | 2.4e-09
COc1cc(OC)cc(C(=O)NCC(=O)OC2CCOC2=O)c1 (configuration not stated) | i | -0.3% | i | 3.0% | 1e-09
O=C(c1csnn1)N1CCC2(CC1)CN(c1ccncc1)C2 | i | 4.3% | i | 4.1% | 7.6e-09
CSc1nc2ccc(NS(=O)(=O)c3ccc(Cl)s3)cc2s1 | i | -0.8% | i | 19.1% | 1e-09
COc1ccc(NC(=O)N(CCO)Cc2cc3c(C)cc(C)cc3[nH]c2=O)cc1 | i | -0.6% | i | 2.4% | 1e-09
COC(=O)c1c(NC(=O)CSc2nnnn2-c2ccccc2)sc2c1CCCC2 | i | 1.3% | i | x | 2.52e-08
Cc1cc(NC(=O)CSc2nnc(Cc3ccccc3)o2)no1 | i | -1.4% | i | -6.4% | 2e-09
Cn1c(SCc2ccc(C#N)cc2)nnc1-c1cccc(Cl)c1 | i | -1.9% | i | 26.8% | 1.9e-08
Cc1nc2cnc(Nc3ccccc3)nc2n(CCc2ccccc2)c1=O | i | 4.0% | i | u | 1e-09
COCCN(CCOC)C(=O)c1c[nH]c2ccc(S(=O)(=O)N(C)c3ccc(F)cc3)cc2c1=O | i | -0.2% | i | 7.7% | 9e-09
NC(=O)N1c2ccccc2CC(=O)c2ccccc21 | u | 3.4% | i | -0.9% | 1e-09
O=C1CC(N2CCN(c3ccc(Cl)c(Cl)c3)CC2)C(=O)N1 (configuration not stated) | i | 0.9% | i | -10.3% | 1.8e-09
FC(F)(F)c1cccc(N2CCc3cn[nH]c32)c1 | i | x | i | x | 1e-09
COc1ccc(OCC(=O)Nc2ccc(N3CCOCC3)cc2)cc1 | x | 0.2% | x | -11.7% | x
CC(=NC1CCCCC1)c1ccccc1O | i | -0.7%[11.5 µM] | i | -0.8%[11.4 µM] | 1.9e-09
N#CC1=C(N)SC(N)=C(C#N)C1c1cccc(Oc2ccccc2)c1 | x | -1.5% | x | u | x
N#CC1=C(N)C(C#N)(C#N)C(c2cccnc2)C2COCC=C12 (configuration not stated) | i | 12.1% | i | u | 2.1e-09
COc1ccc(-c2nc3cc(NC(=O)c4ccc5c(c4)OCO5)ccc3o2)cc1 | i | -2.3% | i | u | 2.6e-09
O=C(Nc1nccs1)c1ccc(Cl)c(S(=O)(=O)N2CCCCC2)c1 | x | 0.6% | x | u | x
Cc1ccccc1C(=O)Nc1ccc2nc3n(c(=O)c2c1)CCC3 | x | 1.3% | x | -4.5% | x
O=C(NC1CCCCC1)C(c1ccccc1)N1CCC2(CC1)OCCO2 (configuration not stated) | i | 0.7% | i | 21.1% | 2.6e-09
CC(=O)c1c(C)nc(-c2ccc(Cl)cc2)nc1NC(=O)C(C)C | i | 3.2% | i | u | 6.5e-09
CSCC[C@H](NC(=O)NCCC1=CCCCC1)C(=O)O | i | -1.1% | i | 2.0% | 2e-09
Cc1ccc(N2CC(C(=O)NC3=NCCS3)CC2=O)cc1 (configuration not stated) | i | -0.3% | i | 0.2% | 3.12e-08
CCCCNC(=O)c1cc(-c2ccc(OC)c(OC)c2)on1 | x | -0.1% | x | 2.6% | x
CCc1nnc(NC(=O)CN2CCC(O)(c3ccccc3OC)CC2)s1 | i | -0.2% | i | -1.1% | 4.58e-08
COc1ccc(-n2c(Cc3cccs3)nnc2SCC(=O)Nc2ccc3c(c2)OCCO3)cc1 | i | 4.6% | i | x | 1.26e-08
CCOC(=O)N1CCC(O)(c2cc(C)c(C)cc2C)CC1 | i | -2.2% | i | 6.4% | 6.5e-09
Cc1ccccc1COc1ccc(/C(O)=C2/C(=O)C(=O)N(CCCn3ccnc3)C2c2ccco2)cc1 (configuration not stated) | i | x | i | x | 1e-09
Cc1noc(C)c1C(=O)Nc1sc(C)c(-c2ccccc2)c1C#N | i | 3.7% | i | -22.9% | 2.19e-08
Cn1c(NC(=O)c2ccccc2C(F)(F)F)cc(=O)n(C)c1=O | x | 2.2% | x | -1.9% | x
CCN(CCO)Cc1cn[nH]c1-c1ccc(C)c(C)c1 | i | -1.3% | i | 11.1% | 9.1e-09
O=C(Nc1c(F)cc(F)cc1Br)c1cc2nc(C(F)F)cc(C(F)F)n2n1 | i | 1.8% | i | -0.8% | 3.09e-08
CCCCNC(=O)CCCn1c(=S)[nH]c2cc3c(cc2c1=O)OCO3 | i | 1.2% | i | 4.4% | 2.9e-09
Cc1nc(Nc2nc(-c3ccccc3)cc(=O)[nH]2)nc2ccccc12 | i | 1.6% | i | 3.6% | 1e-09

# Other results:
SMILES | A488 autofl | AID923 | Resorufin fluor | TSHR ag | A647 fluor
COc1ccc(C(=O)COC(=O)CCCn2c(=O)oc3ccccc32)cc1 | i | -1.2% | i | 12.5% | 2.8e-08
CC1CCCN(C(c2ccccc2)c2sc3ncnn3c2O)C1 (configuration not stated) | x | 1.3% | x | 0.1% | x
Cc1cc(Nc2cccc(Cl)c2)n2ncnc2n1 | x | -0.5% | x | -0.2% | x
Cc1ccc2c(CC(=O)Nc3ccc(N4CCN(C)CC4)cc3C)coc2c1 | i | -0.1% | i | -2.8% | 3.14e-08
COc1ccccc1NC(=O)c1ccc(NS(=O)(=O)c2c(C)noc2C)cc1 | i | 0.1% | i | -2.6% | 1.3e-09
O=C(Cn1c(-c2ccco2)nc2ccccc21)N1CCCCC1 | i | -0.4% | i | u | 2.56e-08
CC[C@H]1OC(=O)C[C@@H](O)[C@H](C)[C@@H](O[C@@H]2O[C@H](C)C[C@H](N(C)C)[C@H]2O)[C@@H](CC=O)C[C@@H](C)C(=O)C=C[C@]2(C)O[C@H]2[C@@H]1C | i | x | i | x | 1.41e-08
O=C(c1cnc2sccn2c1=O)N1CCCc2ccccc21 | x | 3.0% | x | 0.5% | x
COc1ccc2nc(NC(=O)C3CCCN(S(=O)(=O)c4cccs4)C3)sc2c1 (configuration not stated) | i | 1.1% | i | 3.5% | 1e-09
O=C(CCc1ccccc1)Nc1ccc(NC(=O)C2CC2)nc1 | i | 0.9% | i | -0.6% | 4.45e-08
O=C(c1csnn1)N1CCC[C@@]2(CCN(c3ccccc3)C2)C1 | i | 0.8% | i | -3.7% | 1.5e-09
CCOc1ccccc1Oc1coc2cc(O)ccc2c1=O | i | 7.8% | i | 3.1% | 2.76e-08
CC1(C)O[C@@H]2C[C@H]3[C@H]4C[C@H](F)C5=CC(=O)CC[C@]5(C)[C@@H]4[C@H](O)C[C@]3(C)[C@]2(C(=O)CO)O1 | i | 6.2%[25.7 µM] | i | -11.1%[25.6 µM] | 1e-09
Cn1c(=O)c2c(n(C)c1=O)=NC1(CCCCC1)N=2 | i | 1.3% | i | u | 1.83e-08
CCCCCCNC(=O)Nc1ccc(S(=O)(=O)Nc2ccc(CCNC[C@H](O)COc3ccc(O)cc3)cc2)cc1 | x | -1.4% | x | -34.2%[inhibitor] | x
CCc1ccc(OC)c(S(=O)(=O)NCCOc2ccccc2)c1 | i | -0.7% | i | 17.5% | 1.82e-08
Cc1ccccc1N1C(=O)C(Cl)=C(N2CCN(c3ccccc3)CC2)C1=O | x | 4.9% | x | 19.3% | x
CCOC(=O)c1sc(N)nc1-c1ccccc1 | x | -1.0% | x | 2.6% | x
Cc1[nH]c2ccccc2c1NC(=O)CN1CCN(Cc2ccc3c(c2)OCO3)CC1 | i | 1.5% | i | -4.4% | 4.9e-09
O=C(CC1CCCCC1)OCn1nnc2ccccc2c1=O | i | -0.4% | i | 1.9% | 5.1e-09
CC(C(=O)N(C)C)N(C#N)c1nc(N(C)C)nc(N(C)C)n1 (configuration not stated) | i | x | i | x | 9.21e-08
COc1ccc(C[C@H](N)C(=O)N[C@@H]2[C@H](O)[C@H](n3cnc4c(N(C)C)ncnc43)O[C@@H]2CO)cc1 | i | -0.1%[25.7 µM] | i | -10.5%[25.6 µM] | 4.8e-08
Cc1cc(C)c2[nH]c(=O)c(C(c3nnnn3Cc3ccc4c(c3)OCO4)N3CCC(C)CC3)cc2c1 (configuration not stated) | i | 4.1% | i | u | 1.9e-08
N#Cc1nc(-c2ccc(Cl)cc2)oc1NCCc1ccccn1 | i | -2.4% | i | -0.2% | 3.1e-08
COc1ccc(Cl)cc1-n1c(=S)sc2c(=O)[nH]c(SCC(=O)NCC3CCCO3)nc21 (configuration not stated) | i | -0.6% | i | 3.3% | 3.6e-09
COC(=O)CCC(=O)c1oc2ccc(Cl)cc2c1NC(=O)CCCN1C(=O)c2ccccc2C1=O | i | -1.8% | i | 11.0%[11.4 µM] | 1e-09
